Sfp PPTase inh = qHTS Assay for Inhibitors of Bacillus subtilis Sfp phosphopantetheinyl transferase (PPTase); actives 3.5% (n = 310,000); AID 1490, 2009; Biochemical Sfp PPTase activity, qHTS; Potency, µM, for inactives: max response, negative = inhibition, usual class: inhibitors; 4'-phosphopantetheinyl transferase ffp (Bacillus subtilis), Q9F4F7; active means well fitted inhibition curve with a large enough effect; inconclusive means small, poorly fitted or top-dose-only effect, or another doubt; inactive means no such curve, though single readings can be large or run the other way;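 further: the enzyme is Sfp with the accession as filed and its product quenches rhodamine fluorescence; potency means the concentration at half of the fitted maximal effect; 0% = enzyme reaction without inhibitor and -100% = no enzyme wells; top concentration of the series not given in the record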
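Fluorescence-quenching assay: 15 nM Sfp-PPTase preincubated 15 min at room temperature with compound, then 5 uM rhodamine-CoA and 12.5 uM BHQ-2-labelled YbbR peptide added. Fluorescence (ex 525/em 598 nm) read at start and after 30 min; difference gives rate.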
gsp antag = qHTS for Antagonists of gsp, the Etiologic Mutation Responsible for Fibrous Dysplasia/McCune-Albright Syndrome: qHTS; gsp-mutant cells, cAMP HTRF, 30 min; control for the full effect not named in the record; Potency, µM (doses to about 76.9 µM), for inactives: at the highest dose activity change, negative = inhibition, most hits filed as inhibitors; actives 0.4% (n = 340,000); AID 624288, 2012; active = falling curve of any shape with a large fitted effect; inconclusive = falling curve, mostly with a smaller effect; inactive = flat or rising curve; cell line not stated here;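 further: intracellular cAMP measured with PDE inhibitor Ro 20-1724 present during compound exposure; potency means the concentration at half of the fitted maximal effect; on the % scale 0 is the no-effect control and ±100 the full control effect; nearly all actives have a fitted effect of over 65% in size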
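Cells in G418 medium, seeded 16-24 h, 37C; buffer exchange to DPBS + 1 mM CaCl2, 0.5 mM MgCl2, 0.05% BSA; cpds in DMSO + […] (300 uM stock), 30 min 37C; HTRF cAMP detection.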
CtBP-E1A blk = qHTS Assay for Inhibitors of the CtBP/E1A Interaction. CtBP / adenovirus E1A interaction (AlphaScreen). AlphaScreen GST-E1A/His-CtBP binding, 1536-well; stronger effect = lower value; control for the full effect not named in the record. activity change, % (no concentration beside the values). actives 0.49% (n = 340,000). AID 651724, 2012; in the data active means activity change below about -65%; inconclusive means about -30% to -65%; inactive means above about -30%; further: on the % scale 0 is the no-effect control and ±100 the full control effect; compound concentration not given in the record
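Homogeneous bead-based format: GST-tagged E1A captured on glutathione donor beads, His-tagged CtBP on nickel acceptor beads; compounds precede bead addition by 2 h at 37 °C.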
Menin-MLL FL inh = qHTS Assay for Inhibitors Targeting the Menin-MLL Interaction in MLL Related Leukemias: Competition With Fluorescein Labeled MLL-derived Peptide. Fluorescence polarization, fluorescein-MLL peptide displacement from menin. FP activity change, % at 61.4 µM. 290,000 tested, under 10 active; inconclusive = falling polarisation curve, or a change in total fluorescence; inactive = total fluorescence flat and polarisation flat or rising; no compound was filed as active; the % refers to the polarisation; negative = inhibition;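 further: % of control where 0% means no effect; inhibitors lower the polarisation; unlabelled MLL peptide was the positive control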
TRPV1 potentiator = HTS Assay for Compounds that Act as Potentiators of the Vanilloid Receptor 1. TRPV1-expressing cells, Fluo-8 calcium influx, capsaicin EC20 potentiation; host cell line not named in the record; control for the full effect not named in the record. Transient receptor potential cation channel subfamily V member 1 (Homo sapiens), Q8NER1. potentiation, % at 8.33 µM. AID 540277, 2011. actives 0.02% (n = 320,000); active means potentiation above 80%; inconclusive means 30% to 80%; inactive means below 30%; further: 0% is about no effect
Target sequence (Q8NER1 whole entry, looked up): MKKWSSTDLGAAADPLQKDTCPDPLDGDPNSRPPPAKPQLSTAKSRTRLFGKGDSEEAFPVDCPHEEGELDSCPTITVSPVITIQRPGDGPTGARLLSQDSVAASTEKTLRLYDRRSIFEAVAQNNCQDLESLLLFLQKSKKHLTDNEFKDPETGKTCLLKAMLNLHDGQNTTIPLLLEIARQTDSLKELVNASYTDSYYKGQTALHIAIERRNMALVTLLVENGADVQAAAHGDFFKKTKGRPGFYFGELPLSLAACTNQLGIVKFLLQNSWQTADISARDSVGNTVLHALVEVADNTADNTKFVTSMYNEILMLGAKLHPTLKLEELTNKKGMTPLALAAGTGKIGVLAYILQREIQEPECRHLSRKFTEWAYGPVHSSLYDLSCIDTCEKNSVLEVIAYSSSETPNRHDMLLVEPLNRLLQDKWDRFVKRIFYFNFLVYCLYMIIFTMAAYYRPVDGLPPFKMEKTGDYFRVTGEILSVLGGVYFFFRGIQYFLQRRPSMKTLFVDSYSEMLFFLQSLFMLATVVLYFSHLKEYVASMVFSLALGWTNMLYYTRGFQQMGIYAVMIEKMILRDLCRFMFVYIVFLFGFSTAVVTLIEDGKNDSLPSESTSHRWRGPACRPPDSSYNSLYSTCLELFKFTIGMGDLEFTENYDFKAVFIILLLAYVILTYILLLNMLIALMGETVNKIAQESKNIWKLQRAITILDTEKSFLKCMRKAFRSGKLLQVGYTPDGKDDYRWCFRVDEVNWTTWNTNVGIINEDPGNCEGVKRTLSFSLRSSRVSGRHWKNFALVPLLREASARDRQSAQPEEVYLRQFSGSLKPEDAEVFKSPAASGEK
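Fluo-8 calcium influx in TRPV1-expressing cells, kinetic read (ex 480/em 520 nm). Compound added and read 3 min for agonist activity, followed by capsaicin at EC20 final and 2 min further read for enhancement.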
gsp agonist = qHTS for Agonist of gsp, the Etiologic Mutation Responsible for Fibrous Dysplasia/McCune-Albright Syndrome: qHTS | actives 0.13% (n = 340,000) | Potency, µM (series often up to 76.9 µM), inactives show top-dose activation (cAMP increase), hits mostly activators | gsp mutant cells, cAMP HTRF, 30 min; control for the full effect not named in the record; active = well fitted activation curve with a large enough effect; inconclusive = small, poorly fitted or top-dose-only effect, or another doubt; inactive = no such curve, though single readings can be large or run the other way; cell line not stated here;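 further: phosphodiesterase inhibitor Ro 20-1724 added with compounds to block cAMP breakdown; potency means the concentration at half of the fitted maximal effect; nearly all actives have a fitted effect of over 60% in size; about a fifth of the inactives were tested at one dose only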
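Cells stably selected in G418 were plated at 2000/well, grown 16-24 hr, then given compounds in DMSO with the PDE inhibitor […] (300 uM solution added) for 30 min at 37C; cAMP was read by HTRF.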
ClpP mod = qHTS Assay for Activators of ClpP; purified B. subtilis ClpP, FRET peptide cleavage, 20 min; Potency, µM (series often up to 57.5 µM), for inactives: at the highest dose activity change, negative = active; actives 1.9% (n = 340,000); AID 651965, 2013; active = well fitted falling curve with a large enough effect; inconclusive = small, poorly fitted or top-dose-only effect; inactive = no such curve, though single readings can be large or run the other way; further: potency means the concentration at half of the fitted maximal effect; the source files actives as falling curves though it sought activators and does not explain the sign; nearly all actives have a fitted effect of over 65% in size; many hits overshoot -100%
Target sequence (P80244 whole entry, looked up): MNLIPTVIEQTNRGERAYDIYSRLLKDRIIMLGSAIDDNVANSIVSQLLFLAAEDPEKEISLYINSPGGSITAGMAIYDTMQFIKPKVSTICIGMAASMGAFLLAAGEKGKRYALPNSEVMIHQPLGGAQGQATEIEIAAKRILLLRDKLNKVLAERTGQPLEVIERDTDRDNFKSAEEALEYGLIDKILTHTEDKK
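Buffer: 100 mM Tris/HCl pH8, 100 mM KCl, 0.05% low protease BSA, 2.5% glycerol, 0.01% Tween-20. ClpP 10 microg/mL final; 20 min RT; delta FRET normalized to ADEP and DMSO controls.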
* hit, by the source's call; ? = inconclusive; / = no result given; & = joins results of further samples; [ ] = remark or other dose.

SMILES	Sfp PPTase inh	gsp antag	CtBP-E1A blk	Menin-MLL FL inh	TRPV1 potentiator	gsp agonist	ClpP mod
COc1ccc(CCN2CC(C(=O)OCC(=O)N(C)CC(=O)Nc3ccccc3Cl)CC2=O)cc1OC (configuration not stated)	/	3%	-8	/	/	9%	-0.7%
Cc1ccc(N2C(=O)CC(Sc3ccccc3C(=O)O)C2=O)cc1C (configuration not stated)	50µM*	3%	/	0.1	9	11%[15.4 µM]	/
O=C(NCc1cccnc1)c1c(F)c(F)c(F)c(F)c1F	14%	-5%	-3	2.8	-2	-41%[inhibitor]	-18%
O=C(O)c1ccccc1C(=O)Nc1n[nH]c(=S)s1	10µM*	0%	1	4.7	2	-56%[inhibitor]	0.9%
CC(=O)Nc1ccc(S(=O)(=O)NCC(=O)OCC(=O)N2CCCCCC2)cc1	/	3%	3	/	0	-1%	-1.0%
CCc1ccc(NC(=O)c2[nH]c(C)c(C(C)=O)c2C)cc1	-7%	-12%	-7	1.3	23	9%[15.4 µM]	/
COc1ccccc1-c1cc(C(=O)Nc2cccnc2Cl)no1	19%	3%	2	-1.0	21	?	/
Cc1ccc(/C=N/Nc2nc3ccccc3s2)o1	?	-13%	-28	4.7	-3	0%[15.4 µM]	-3.0%
Cc1cc(C)c(S(=O)(=O)N(C)Cc2cnn(C)c2)c(C)c1	11%	-3%	3	-1.9	-1	2%	1.3%
CN(CCNC(=O)CN1CCN(Cc2ccccc2Cl)C1=O)Cc1ccccc1	-6%	9%	-8	-3.2	14	-5%	2.9%
COc1ccccc1N1CCN(S(=O)(=O)c2ccccc2F)CC1	7%	-12%	0	-1.9	-19	23%	-2.4%
O=C(Cn1nnc(-c2ccc3c(c2)OCO3)n1)N1CCOCC1	9%	2%	-2	-3.1	0	-23%	?
O=P(c1ccccc1)(c1ccccc1)C(c1ccco1)N1CCOCC1 (configuration not stated)	20%	5%	-2	0.1	-19	0%	1.2%
CCOC(=O)Nc1cc2c(C)cc(=O)oc2cc1C	-14%	4%	0	16	13	4%	16µM*
Cc1cccc(-c2noc(CN(C(=O)C(c3ccccc3)c3ccccc3)C(C)C)n2)c1	-19%	-13%	-1	-1.3	10	3%	0.2%
Fc1cc(F)cc(-c2oncc2-c2nnnn2-c2ccccc2)c1	27%	16%	3	-0.4	23	?	0.8%
COc1ccc(N(C(=O)c2cccnc2)S(=O)(=O)c2cccs2)cc1	27%	3%	3	-12	3	11%	/
N#CCCN(Cc1cccnc1)C(=S)NC(=O)C1CC1	?	/	/	1.6	-7	/	/
COc1ccccc1NS(=O)(=O)c1ccc(C(=O)NCc2ccco2)cc1	/	13%	8	/	/	-62%[inhibitor]	1.2%
COc1ccc(OCCOc2ccccc2[N+](=O)[O-])cc1	15%	7%	-5	-1.1	5	-7%	-4.2%

Rewritten with values under each structure: entries from further up.
Order of values – Sfp PPTase inh | gsp antag | CtBP-E1A blk | Menin-MLL FL inh | TRPV1 potentiator | gsp agonist | ClpP mod
CC(=O)Nc1ccc(S(=O)(=O)NCC(=O)OCC(=O)N2CCCCCC2)cc1
→ / | 3% | 3 | / | 0 | -1% | -1.0%
COc1ccc(CCN2CC(C(=O)OCC(=O)N(C)CC(=O)Nc3ccccc3Cl)CC2=O)cc1OC (configuration not stated)
→ / | 3% | -8 | / | / | 9% | -0.7%
N#CCCN(Cc1cccnc1)C(=S)NC(=O)C1CC1
→ ? | / | / | 1.6 | -7 | / | /

The results go on.
SMILES	Sfp PPTase inh	gsp antag	CtBP-E1A blk	Menin-MLL FL inh	TRPV1 potentiator	gsp agonist	ClpP mod
Cc1ccc(N2C(=O)N(CC(=O)Nc3cc(C)cc(C)c3)C(=O)C2C)cc1 (configuration not stated)	8%	-8%	-5	3.8	-9	-11%	/
CC(=O)OC(C)C[N+](C)(C)C (configuration not stated)	-12%&13%	1%	-1	3.8&-0.4&-3.8	-20	/	-1.9%
O=C1OC(CC(=O)N(Cc2nnc(-c3ccc(Cl)cc3)o2)C2CC2)c2ccccc21 (configuration not stated)	/	-13%	8	/	0	9%	0.5%
Cc1ccc(C(C)C)c(OCC(=O)N/N=C2\CC(=O)CC(C)(C)C2)c1	1%	-9%	3	-0.2	8	-17%	/
CCOc1ccc(NS(=O)(=O)c2ccc(C(=O)NCC3(N(C)C)CCCCC3)cc2)cc1	/	7%	-22	/	0	-23%	-3.6%
Cc1ccc(-c2nnc(SCC(=O)Nc3ccc(S(=O)(=O)N4CCCCCC4)cc3)o2)cc1	-18%	3%	1	-1.6	-1	-49%[inhibitor]	0.6%
COc1ccccc1CNCCS(=O)(=O)NN1CCOCC1	/	7%	1	/	/	/	1.2%
CN1CCn2cnc(C(=O)N[C@@H](Cc3ccccc3)C(=O)OC(C)(C)C)c2C1=O	/	/	-1	/	/	0%	1.3%
CCCn1c(NC(=O)c2ccc(Cl)c(S(=O)(=O)N3CCCC3)c2)nc2ccccc21	13%	-25%	-5	-1.2	7	1%	?
Cc1ccc(/C(O)=C2\C(=O)C(=O)N(C)C2c2ccc([N+](=O)[O-])cc2)cc1 (configuration not stated)	23%	-3%	/	1.3	-22	-38%[inhibitor]	1.9%
CCOC(=O)C(C(C)=O)=C1SC2CS(=O)(=O)CC2S1 (configuration not stated)	9%	1%	-7	3.0	-5	-5%	-2.5%
N=C1c2ccccc2CN1NC(=O)c1cccc(S(=O)(=O)N2CCOCC2)c1	13%	5%	/	1.6	-1	-31%	-0.4%
COc1ccc(-c2oc3ccccc3c2C(=O)OCc2ccccc2)cc1	4%	3%	50	13	4	-11%	4.1%
COc1ccc(CN2CC(=O)N3[C@H]4c5ccc(OC)cc5OC[C@@H]4[C@H](c4ccccc4)[C@]3(C)C2=O)cc1	/	-24%	-11	/	2	-4%	0.3%
Cc1ccc(S(=O)(=O)N(C)C)cc1-n1c(SCC(=O)Nc2ccc(F)cc2)nc2ccccc2c1=O	21%	-8%	-18	5.3	25	15%	-5.8%
CC(C)(C)c1ccc(OCCCC(=O)N2CCOCC2)cc1	-3%	-15%	/	1.5	-6	7%	0.9%
COCOCCn1cc(CN2CCS(=O)(=O)N(Cc3ccc(-c4cccc(N(C)C)c4)cc3)C(CC(C)C)C2=O)nn1 (configuration not stated)	/	/	-10	/	/	-20%	-28%
CCc1c(C(C)S(=O)(=O)c2ccc(C)cc2)[nH]c(=O)n1-c1ccc(OC(F)(F)F)cc1 (configuration not stated)	0%	-27%	6	3.0	8	-27%	0.6%
C#Cc1ccc([C@@H]2C=C(C(=O)N3CCOCC3)O[C@H](OCC)[C@H]2CCCO)cc1	3%	-3%	8	3.0	-5	30%	-1.1%
O=c1c(Cc2ccc(Cl)cc2Cl)c(O)ccn1CC(F)(F)F	6%	17%	3	-24	30	-37%[inhibitor]	0.6%

Sfp PPTase inh, entries above that show a hit
| SMILES | Sfp PPTase inh | CtBP-E1A blk | Menin-MLL FL inh | gsp agonist |
| --- | --- | --- | --- | --- |
| Cc1ccc(N2C(=O)CC(Sc3ccccc3C(=O)O)C2=O)cc1C (configuration not stated) | 50µM* | / | 0.1 | 11%[15.4 µM] |
| O=C(O)c1ccccc1C(=O)Nc1n[nH]c(=S)s1 | 10µM* | 1 | 4.7 | -56%[inhibitor] |

Continuation:
SMILES	Sfp PPTase inh	gsp antag	CtBP-E1A blk	Menin-MLL FL inh	TRPV1 potentiator	gsp agonist	ClpP mod
COc1ccc(N/C(N)=N/c2nc(C)cc(=O)[nH]2)cc1	-3%	12%	1	-1.2	24	14%[15.4 µM]	0.4%
CC(C)C[C@@H](CO)N1CCN(Cc2cccnc2)CCC1=O	17%	-3%	-22	-3.1	21	14%	-1.3%&-2.0%
Cc1ccccc1CCNC(=O)CCn1ccc2cc(S(=O)(=O)N3CCCC3)ccc21	5%	-8%	2	-2.0	8	2%	-2.7%
NC1=NC(=O)/C(=C/c2ccccc2OS(=O)(=O)c2ccc3ccccc3c2)S1	-1%	1%	-1	-0.9	27	-2%	-3.2%
O=C(NC1CCN(S(=O)(=O)c2ccccc2C(F)(F)F)CC1)c1ccco1	11%	5%	23	0.5	0	19%	/
Cc1ccc(OCCNC(=O)c2ccc(C)o2)cc1	/	4%	-1	/	-22	0%	1.6%
Cc1oc2c(C)c3oc(=O)c(CCC(=O)NCCCCCC(=O)O)c(C)c3cc2c1C	11%	-2%	?	-5.1	4	?	-9.6%
COc1cc2c(cc1[N+](=O)[O-])-c1ccc([N+](=O)[O-])cc1C2=NNC(N)=S	/	/	?	/	/	-8%	0.3%
COc1ccc(-c2cc3ccccc3[nH]2)cc1	5%	3%	1	2.7	1	0%[15.4 µM]	/
Cc1[nH]n2c(=O)cc(C(C)C)nc2c1-c1ccccc1	10%	4%	0	3.3	-3	-32%	?
CCOC(=O)C1CCN(C(=O)c2cc3c(-c4ccc(OC)c(OC)c4)nn(C)c3s2)CC1	-17%	9%	-24	2.9	/	?	-18%
COc1ccccc1C(=O)NC(=O)COC(=O)c1ccc(Br)o1	/	9%	10	/	-9	-19%	-17%
COc1ccc(CN2CCNC(=O)C2CC(=O)N(C)C2CCCCC2)cc1OC (configuration not stated)	/	/	3	/	/	?	-4.7%
O=C(O)c1nc(NCc2ccccc2)ncc1Cl	-10%	19%	-1	-0.6	-10	41%	-22%

Single entries from the entries so far.
Menin-MLL FL inh result of `Fc1cc(F)cc(-c2oncc2-c2nnnn2-c2ccccc2)c1` = -0.4
gsp antag result of `Cc1ccc(C(C)C)c(OCC(=O)N/N=C2\CC(=O)CC(C)(C)C2)c1` = -9%

Screens as filed in PubChem.

Not a hit list, and some 5.3% of all compounds hit somewhere here.
